Compound activity as filed in PubChem BioAssay.
ClpP mod: qHTS Assay for Activators of ClpP. ATP-dependent Clp protease proteolytic subunit (Bacillus subtilis (strain 168)), P80244. purified B. subtilis ClpP, FRET peptide cleavage, 20 min. Potency, µM (titrated, usually from 57.5 µM), without a hit: top-dose activity change, negative = active. hit rate 1.9% among 340,000. AID 651965, 2013; active = well fitted falling curve with a large enough effect; inconclusive = small, poorly fitted or top-dose-only effect; inactive = no such curve, though single readings can be large or run the other way; further: potency means the concentration at half of the fitted maximal effect; the source files actives as falling curves though it sought activators and does not explain the sign; nearly all actives have a fitted effect of over 65% in size; many hits overshoot -100%
Target sequence (P80244 whole entry, looked up): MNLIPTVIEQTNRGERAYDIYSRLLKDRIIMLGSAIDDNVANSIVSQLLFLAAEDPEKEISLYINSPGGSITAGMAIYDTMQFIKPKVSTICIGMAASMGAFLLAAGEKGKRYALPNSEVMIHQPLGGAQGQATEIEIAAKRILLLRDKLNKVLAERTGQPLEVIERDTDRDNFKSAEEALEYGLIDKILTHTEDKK
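Purified B. subtilis ClpP, 10 microg/mL final in Tris/HCl pH8 with KCl, BSA, glycerol and Tween-20, cleaved an Abz/nitrotyrosine-quenched decapeptide. Fluorescence (ex 320, em 430) was read at 0 and 20 min at room temperature. Delta was normalized to 5.8 microM ADEP and DMSO/no-enzyme controls.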
TRPML1 inh: inhibitors of human TRPML1 channel. Q9GZU1. TRPML1-inducible cells, Ca2+ dye fluorescence, FDSS; hits give low values; inhibition of EC80 agonist-evoked calcium signal. activity change, negative = inhibition, % (concentration not given with the values). hit rate 0.02% among 390,000; in the data active means activity change below about -50%; inconclusive means about -30% to -50%; inactive means above about -30%;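 further: stimulus is agonist 54-4 at its EC80 concentration; on the % scale 0 is the no-effect control and ±100 the full control effect; compound concentration not given in the record; the text of the record puts the active cut at -80%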
Target sequence (Q9GZU1 whole entry, looked up): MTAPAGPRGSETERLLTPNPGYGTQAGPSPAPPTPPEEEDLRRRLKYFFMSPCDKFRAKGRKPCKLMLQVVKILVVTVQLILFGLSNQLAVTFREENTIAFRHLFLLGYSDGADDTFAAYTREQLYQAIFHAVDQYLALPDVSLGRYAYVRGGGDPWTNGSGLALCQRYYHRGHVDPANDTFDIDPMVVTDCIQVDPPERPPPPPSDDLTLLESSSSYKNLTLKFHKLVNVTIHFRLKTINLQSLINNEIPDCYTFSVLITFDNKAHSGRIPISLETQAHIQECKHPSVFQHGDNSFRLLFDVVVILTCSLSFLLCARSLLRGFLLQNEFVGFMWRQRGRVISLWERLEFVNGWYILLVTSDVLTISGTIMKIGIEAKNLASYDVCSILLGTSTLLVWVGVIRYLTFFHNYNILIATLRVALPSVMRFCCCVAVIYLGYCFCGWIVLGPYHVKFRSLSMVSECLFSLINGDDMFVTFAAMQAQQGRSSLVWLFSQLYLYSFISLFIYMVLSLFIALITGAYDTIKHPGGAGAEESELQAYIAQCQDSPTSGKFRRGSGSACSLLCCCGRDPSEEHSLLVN
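Calcium fluorescence in TRPML1-DL cells induced overnight with Tet: a 110 s read after compound pin addition, then a 110 s antagonist read after challenge with 54-4 at 4 uM final (EC80).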
* hit, by the source's call. Not all compounds are listed; rates above refer to the full screens.

What do the screens show for `COc1ccc(-c2onc(C)c2C)cc1S(=O)(=O)NCc1cccs1`?
ClpP mod: 1.1%; TRPML1 inh: 42

How did CCc1nnc(NC(=O)CSCc2cc(=O)c3ccc(C)cc3[nH]2)s1 do in these assays?
ClpP mod: -8.9%; TRPML1 inh: -3

Results for CCOC(=O)c1[nH]c2ccccc2c1NC(=O)c1c(F)cccc1F ?
ClpP mod: 4.4%; TRPML1 inh: 1

Results for CCC(=O)N1CCc2cc(Br)cc(S(=O)(=O)CCC(=O)Nc3ccc(CC)cc3)c21 ?
ClpP mod: 3.0%; TRPML1 inh: -7

What do the screens show for `CC(C)=CCn1c2ccc(NC(=O)NCc3ccc(F)cc3)cc2c(=O)n1C`?
ClpP mod: 4.0%; TRPML1 inh: 16

How did CCc1nn(CC(=O)N(CC)Cc2ccccc2)c(=O)c2cc3occc3n12 do in these assays?
ClpP mod: -7.2%; TRPML1 inh: 13

What do the screens show for `Cc1cc(OCC(O)CN2CCN(c3cccc(Cl)c3)CC2)ccc1Cl` (stereo not drawn)?
ClpP mod: -1.3%; TRPML1 inh: 4

How did CCOC(=O)C1=CCN(S(=O)(=O)c2ccccc2Br)C1c1cccc(C)c1 (stereo not drawn) do in these assays?
ClpP mod: 1.3%; TRPML1 inh: 3

How did Cc1ccc(NC(=O)Cn2c(SCc3cccc(F)c3)nc3ccncc32)c(C)c1 do in these assays?
ClpP mod: -21%; TRPML1 inh: 8

How did COCCCn1c(=O)c2sccc2n2c(CCCC(=O)Nc3cccc(OC)c3)nnc12 do in these assays?
ClpP mod: -8.4%; TRPML1 inh: -5

Results for CCOC(=O)c1cccc(NC(=O)c2cc(CN3CCCC3)on2)c1 ?
ClpP mod: -0.3%; TRPML1 inh: -29

How did COc1ccc(NC(=O)c2oc3ccc(S(=O)(=O)N(C)C4CCCCC4)cc3c2C)cc1Cl do in these assays?
ClpP mod: 28µM*; TRPML1 inh: -15

What do the screens show for `CC(C)Oc1ccc(CNC(=O)c2cc3ccccn3n2)cc1`?
ClpP mod: inconclusive; TRPML1 inh: -22

How did CC(=O)Nc1ccc(S(=O)(=O)N(Cc2ccccc2)Cc2ccccc2)cc1 do in these assays?
ClpP mod: 2.8%; TRPML1 inh: 22

What do the screens show for `CCOC(=O)N1CCN(C(=O)CN(c2cccc(Cl)c2)S(=O)(=O)c2ccccc2)CC1`?
ClpP mod: -3.0%; TRPML1 inh: -7

How did O=C(Cn1c(=O)oc2cc(S(=O)(=O)N3CCCC3)ccc21)NCc1ccc(Cl)cc1 do in these assays?
ClpP mod: -2.9%; TRPML1 inh: -2

How did Cc1ccc(CSc2nnc(-c3ccccn3)n2Cc2cccs2)cc1 do in these assays?
ClpP mod: -1.2%; TRPML1 inh: -10

How did O=C(NCCc1ccccc1)c1ccc2c(c1)N(Cc1ccccc1Cl)C(=O)c1ccccc1S2 do in these assays?
ClpP mod: 1.1%; TRPML1 inh: 42

How did O=C(CC1N=C2c3ccccc3N=C(SCc3ccccc3F)N2C1=O)NCc1cccs1 (stereo not drawn) do in these assays?
ClpP mod: 0.5%; TRPML1 inh: 6

How did Cc1ccccc1NC(=O)c1ccc(F)c(S(=O)(=O)N2CCc3ccccc3C2)c1 do in these assays?
ClpP mod: -8.7%; TRPML1 inh: 18

Results for Cn1ccc2c(N3CCCCCC3)cc3c(c21)C1CCC3C1 (stereo not drawn) ?
ClpP mod: -3.3%; TRPML1 inh: -3

How did Cc1ccccc1CN1C(=O)c2ccccc2Sc2ccc(C(=O)NCCc3ccccc3)cc21 do in these assays?
ClpP mod: -6.2%; TRPML1 inh: 40

How did O=C(NCC(c1ccco1)S(=O)(=O)c1cccs1)c1ccc(F)c(F)c1 (stereo not drawn) do in these assays?
ClpP mod: -0.1%; TRPML1 inh: -11

How did COc1cc(NC(=O)c2cc3cc4cc(OC)ccc4nc3o2)cc(OC)c1 do in these assays?
ClpP mod: -11%; TRPML1 inh: -8

How did CCc1ccccc1NC(=O)C1=C(C)C(=O)OC12CCCCCC2 do in these assays?
ClpP mod: -1.0%; TRPML1 inh: -10

What do the screens show for `CCc1ccccc1NC(=O)CCNS(=O)(=O)c1ccc2c(c1)CCCC(=O)N2`?
ClpP mod: -3.0%; TRPML1 inh: 8

What do the screens show for `COCCn1c(=N)c(C(=O)NCC2CCCO2)cc2c(=O)n3ccccc3nc21` (stereo not drawn)?
ClpP mod: 3.8%; TRPML1 inh: 11

How did COc1ccccc1-c1nc(S(=O)(=O)c2ccccc2)c(N2CCC(C)CC2)o1 do in these assays?
ClpP mod: -11%; TRPML1 inh: 14

What do the screens show for `CCc1ccccc1NS(=O)(=O)c1ccc2[nH]cc(C(=O)N3CCCCC3)c(=O)c2c1`?
ClpP mod: 5.0%; TRPML1 inh: 10

Results for CCCCNc1cc(NC2CCCCC2)c2c3c(onc13)-c1ccccc1C2=O ?
ClpP mod: 0.9%; TRPML1 inh: -18

Results for CCC(Cc1ccccc1)NC(=O)Cn1ncc2c3ccccc3n(Cc3ccc(F)cc3)c2c1=O (stereo not drawn) ?
ClpP mod: inconclusive; TRPML1 inh: -13

What do the screens show for `CCc1ccccc1NC(=O)c1sc2nc3c(cc2c1N)CN(Cc1ccccc1)CC3`?
ClpP mod: -16%; TRPML1 inh: 7

How did O=C(Nc1ncnc2c1ncn2[C@@H]1O[C@H](/C=C/C(=O)N2CCN(c3ccc(F)cc3)CC2)[C@@H](O)[C@H]1O)c1ccccc1 do in these assays?
ClpP mod: 0.4%; TRPML1 inh: 0

How did OC[C@@H]1CN(Cc2ccco2)C[C@H](n2cnc3c(N4CCOCC4)ncnc32)O1 do in these assays?
ClpP mod: -3.2%; TRPML1 inh: 16

What do the screens show for `Cc1cccc(-c2nc3c(cnn3-c3ccccc3)c(=O)n2-c2ccc(Br)cc2)c1`?
ClpP mod: inconclusive; TRPML1 inh: -9

Results for Cc1nn(CC(=O)N2CCCCC2)c(=O)c2cc3occc3n12 ?
ClpP mod: -2.5%; TRPML1 inh: 15

What do the screens show for `Cc1ccc(NC(=O)c2c(C)oc3ncnc(N4CCCCC4)c23)cc1Cl`?
ClpP mod: 1.8%; TRPML1 inh: -3

What do the screens show for `CC(C)(C)c1ccc(C(=O)NC(Cc2c[nH]c3ccccc23)C(=O)OCC(=O)c2ccc(Br)cc2)cc1` (stereo not drawn)?
ClpP mod: 2.6%; TRPML1 inh: -9

How did Nc1nc(Nc2cccc(Cl)c2)sc1C(=O)c1ccc(F)cc1 do in these assays?
ClpP mod: -3.7%; TRPML1 inh: 38

How did CCCc1cc(=O)[nH]c(Nc2cc(C)cc(C)c2)n1 do in these assays?
ClpP mod: -4.3%; TRPML1 inh: -6

Results for COc1ccc(C2=CC(c3ccc(N(C)C)cc3)n3nnnc3N2)cc1 (stereo not drawn) ?
ClpP mod: -7.1%; TRPML1 inh: 25

What do the screens show for `Cc1ccc(CSC2=Nc3ccccc3C3=NC(CCC(=O)NCc4cccs4)C(=O)N23)c(C)c1` (stereo not drawn)?
ClpP mod: -7.0%; TRPML1 inh: -7

How did COc1cc2c(cc1OC)C(COc1ccc3c(C)cc(=O)oc3c1)N(C(=O)c1ccccc1F)CC2 (stereo not drawn) do in these assays?
ClpP mod: 91%; TRPML1 inh: 38

What do the screens show for `O=C(NCc1ccccc1Cl)c1nnc(Cc2cccc(F)c2)o1`?
ClpP mod: 0.0%; TRPML1 inh: 47

Results for Cc1ccc(Cn2cc3c(n2)-c2c(oc(C(=O)Nc4ccc(F)cc4F)c2C)CC3)cc1 ?
ClpP mod: 1.6%; TRPML1 inh: -8

Results for Cc1nnc(N2CCN(c3ccc(Cl)cc3)CC2)c2c1nnn2Cc1ccc(F)cc1 ?
ClpP mod: inconclusive; TRPML1 inh: 32

Results for COc1cc(C2NC(=O)NC(C)=C2C(=O)Nc2cc(C)cc(C)c2)ccc1O (stereo not drawn) ?
ClpP mod: -1.2%; TRPML1 inh: 6

What do the screens show for `O=S(=O)(NCc1ccccc1)c1ccc2[nH]c3c(c2c1)CCCCC3`?
ClpP mod: inconclusive; TRPML1 inh: 4

Retrieved by compound from above:
Results for CCOC(=O)c1[nH]c2ccccc2c1NC(=O)c1c(F)cccc1F ?
ClpP mod: 4.4%; TRPML1 inh: 1

How did O=C(CC1N=C2c3ccccc3N=C(SCc3ccccc3F)N2C1=O)NCc1cccs1 (stereo not drawn) do in these assays?
ClpP mod: 0.5%; TRPML1 inh: 6

What do the screens show for `Cc1cc(OCC(O)CN2CCN(c3cccc(Cl)c3)CC2)ccc1Cl` (stereo not drawn)?
ClpP mod: -1.3%; TRPML1 inh: 4

Results for COc1ccc(C2=CC(c3ccc(N(C)C)cc3)n3nnnc3N2)cc1 (stereo not drawn) ?
ClpP mod: -7.1%; TRPML1 inh: 25

What do the screens show for `Cc1cccc(-c2nc3c(cnn3-c3ccccc3)c(=O)n2-c2ccc(Br)cc2)c1`?
ClpP mod: inconclusive; TRPML1 inh: -9

Results for CCCCNc1cc(NC2CCCCC2)c2c3c(onc13)-c1ccccc1C2=O ?
ClpP mod: 0.9%; TRPML1 inh: -18

Ordered by molecular weight (highest first): part of the list above
What do the screens show for `Cc1ccc(CSC2=Nc3ccccc3C3=NC(CCC(=O)NCc4cccs4)C(=O)N23)c(C)c1` (stereo not drawn)?
ClpP mod: -7.0%; TRPML1 inh: -7

What do the screens show for `Cc1ccc(NC(=O)c2c(C)oc3ncnc(N4CCCCC4)c23)cc1Cl`?
ClpP mod: 1.8%; TRPML1 inh: -3

Results for COc1cc(C2NC(=O)NC(C)=C2C(=O)Nc2cc(C)cc(C)c2)ccc1O (stereo not drawn) ?
ClpP mod: -1.2%; TRPML1 inh: 6

(listing goes on)
What do the screens show for `Cc1ccc(-c2cc(C(=O)Nc3cc([N+](=O)[O-])ccc3C)no2)cc1F`?
ClpP mod: 1.1%; TRPML1 inh: 50

What do the screens show for `Cc1ccc(Cl)cc1NC(=O)c1ccc(-c2nc(CSc3ccccc3)c(C)o2)cc1`?
ClpP mod: 13µM*; TRPML1 inh: 3

What do the screens show for `O=C(NCC(c1cccnc1)N1CCc2ccccc2C1)C(=O)Nc1ccccc1F` (stereo not drawn)?
ClpP mod: -0.7%; TRPML1 inh: 2

Results for CC(C)c1ccc(NC(=O)Cn2c(=O)n(CCc3ccccc3)c(=O)c3ccccc32)cc1 ?
ClpP mod: -0.8%; TRPML1 inh: 18

What do the screens show for `CCc1nnc(SCC(=O)Nc2ccc(OC)c(OC)c2)c2cc3occc3n12`?
ClpP mod: -4.3%; TRPML1 inh: 0

What do the screens show for `Cn1cnc(S(=O)(=O)N2CCC(C(=O)NCc3ccccc3Cl)CC2)c1`?
ClpP mod: 2.8%; TRPML1 inh: 13

How did Cc1ccc(C)c(NC(=O)Cn2nnc(C(=O)NCc3ccccc3Cl)c2N)c1 do in these assays?
ClpP mod: -2.6%; TRPML1 inh: 2

What do the screens show for `Cc1ccc2[nH]c(=O)c3cc(C(=O)NCc4cccc(Cl)c4)sc3c2c1`?
ClpP mod: inconclusive; TRPML1 inh: -17

What do the screens show for `COc1ccccc1-c1nnc(SCC(=O)c2ccc(Cl)cc2)n1-c1ccccc1`?
ClpP mod: 0.6%; TRPML1 inh: 52

How did COC(=O)c1c(NC(=O)CCCOc2ccc(C)cc2)sc2c1CCCC2 do in these assays?
ClpP mod: -6.9%; TRPML1 inh: 0

How did N#Cc1ccccc1CSc1nnc2ccc3ccccc3n12 do in these assays?
ClpP mod: -0.8%; TRPML1 inh: -8

What do the screens show for `COc1cccc(CNC(=O)CSc2c3c(nc4ccc(Cl)cc24)CCCC3)c1OC`?
ClpP mod: -3.0%; TRPML1 inh: 11

Results for O=S(=O)(NCCc1nnc2ccc(SCc3ccccc3Cl)nn12)c1ccccc1 ?
ClpP mod: -4.2%; TRPML1 inh: 16

Results for COc1ccc(-c2cc3nc(C)c(CCC(=O)NC4CCCCC4)c(C)n3n2)c(OC)c1 ?
ClpP mod: -5.1%; TRPML1 inh: -24

How did CCc1ccc(-n2nc3ccc(NC(=O)c4cc5ccccc5o4)cc3n2)cc1 do in these assays?
ClpP mod: -4.6%; TRPML1 inh: -6

What do the screens show for `COc1ccccc1CNC(=O)CCCn1c(=O)c2ccccc2n(Cc2ccccc2C#N)c1=O`?
ClpP mod: -9.3%; TRPML1 inh: -4

How did CCOCN(C(=O)Cn1c(C)nc2ccccc21)c1c(C)cccc1CC do in these assays?
ClpP mod: 0.8%; TRPML1 inh: 34

How did COc1cccc(N2CCN(C(=O)c3ccc4c(=O)n(CCc5ccccc5)c(=O)[nH]c4c3)CC2)c1 do in these assays?
ClpP mod: -0.4%; TRPML1 inh: 4

What do the screens show for `O=C(CSc1ncc2c(n1)-c1ccccc1N(Cc1ccc(F)cc1)S2(=O)=O)c1ccc(Br)cc1`?
ClpP mod: -1.3%; TRPML1 inh: -8

What do the screens show for `O=C(/C=C/c1ccc(Cl)cc1)Nc1nc(-c2cccs2)ns1`?
ClpP mod: inconclusive; TRPML1 inh: 11

How did Nc1c(C(=O)Nc2ccccc2Br)sc2nc(-c3cccs3)ccc12 do in these assays?
ClpP mod: 32µM*; TRPML1 inh: -6

Results for CCOC(=O)CC(NC(=O)c1cc2cc(Br)cc(OC)c2oc1=O)c1ccc(OC)cc1 (stereo not drawn) ?
ClpP mod: -2.4%; TRPML1 inh: 18

How did CCCCn1cc(S(=O)(=O)c2ccc(OC)cc2)c(=O)c2cc(F)c(N3CCOCC3)cc21 do in these assays?
ClpP mod: inconclusive; TRPML1 inh: 0
